Screening data from PubChem BioAssay.
Sa growth inh: S. aureus growth inhibition at 42 and 30 °C, primary screen, LtaS inhibitor project, RN4220, two temperatures; OD600, 20 h, 42 °C; active compounds read low; relative growth, % (test concentration not listed); 0.53% of 170,000 active;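 active means growth at 42 °C up to 50% and 20 or more points under that at 30 °C, or under 10% at both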;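 further: 300 nL library stock went into each well; scaled to the means of positive and negative controls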
GIV Gai3 FP: inhibitors of GIV peptide binding to Galpha-i3, primary screen, biochemical, fluorescence polarization, FITC-GIV GBA peptide, rat Galphai3. Guanine nucleotide-binding protein G(i) subunit alpha-3 (Rattus norvegicus), P08753. 90 min; active compounds read low; scaled: aluminum fluoride 0%, vehicle 100%. percent of control (FP), % (test concentration not listed). 0.42% of 210,000 active;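 active means replicate mean at 85% of control or lower, very high polarization wells dropped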;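 further: lower values mean more displacement of the GIV peptide from Galpha-i3; wells of about 15 µL received 100 nL stock; the first replicate is given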
Target sequence (P08753 whole entry, looked up): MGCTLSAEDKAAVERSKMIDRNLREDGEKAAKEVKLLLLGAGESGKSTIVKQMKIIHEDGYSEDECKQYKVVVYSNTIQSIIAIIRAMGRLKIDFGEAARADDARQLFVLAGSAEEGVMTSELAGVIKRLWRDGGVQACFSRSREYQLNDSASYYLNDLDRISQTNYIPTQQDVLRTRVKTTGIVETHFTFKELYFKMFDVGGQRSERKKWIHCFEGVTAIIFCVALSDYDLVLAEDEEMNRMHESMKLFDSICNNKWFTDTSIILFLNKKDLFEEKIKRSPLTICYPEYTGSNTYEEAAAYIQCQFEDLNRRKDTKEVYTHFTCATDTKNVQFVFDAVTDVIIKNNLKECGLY
HCMV NEC inh: inhibitors of HCMV UL50-UL53 interaction, biochemical, HTRF; inhibition, % (concentration not given with the values); 0.15% of 190,000 active; HCMV UL50-UL53 nuclear egress complex (human cytomegalovirus); normalized percent inhibition;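 active means both replicates at 50% or more, plus weaker picks with an unusually low signal ratio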;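 further: stock transfer was 100 nL into about 20 µL; 0% = negative control wells and 100% = wells with untagged competitor protein; inactives centre near -12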
Sa growth inh second temp: second read-out of Sa growth inh, no call of its own (marks repeat the call); relative growth, %; measured here: growth at 30 °C;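 optical density after 20 h as mean of two plates; 100% = untreated growth and lower means inhibition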
* = called active by the depositor; · = not tested or not shown; & = joins results of further samples.

structure	Sa growth inh	Sa growth inh second temp	GIV Gai3 FP	HCMV NEC inh
Cc1ccc(-c2cc3c4c(C)n(C)c(C)c4c(C)nn3c2)o1	83.0	82.4	101.9	-4.7
CC(O)Cc1nsc(NC(=O)c2cccs2)n1 (stereo not given)	132.8	83.6	100.0	-10.5
O=C(NC1CC1)c1cc2ccccc2o1	103.9	93.8	104.4	-7.1
COc1ccc2[nH]cc(CCN3CC(C(=O)Nc4ccc5c(c4)CCC5)CC3=O)c2c1 (stereo not given)	·	·	106.6	-3.0
COC(=O)c1[nH]c2cscc2c(=O)c1C(=O)OC	93.4	83.1	108.7	-93.3
N=C(N)SCC1CN=C(Nc2ccccc2)S1 (stereo not given)	114.7	92.0	103.2	-7.4
COc1ccc(CCNC(=O)/C=C/c2ccc(F)cc2)cc1OC	107.8	83.8	·	-40.3
COc1ccc(CNC(=O)CCn2c(=O)c3sccc3n(Cc3cc(C)ccc3C)c2=O)cc1	105.8	93.7	101.6	·
CCOC(=O)c1cc(S(=O)(=O)N2CCCC2C(=O)N2CCCCC2)cn1C (stereo not given)	·	·	102.3	-17.1
Cc1ccccc1Cc1c(C)nc2nc(SCC(=O)NCCc3ccc(Cl)cc3)nn2c1C	95.8	92.4	100.9	-23.3

Next entries:
structure	Sa growth inh	Sa growth inh second temp	GIV Gai3 FP	HCMV NEC inh
Cc1cc(C(=O)CSc2nc(N)c(C#N)cc2C#N)c(C)n1Cc1ccc(F)cc1	74.9	85.5	·	-51.7
CSc1nc2c(ccc3ccccc32)o1	92.0	81.8	106.6	-13.4
Nc1nc(=S)nc(C2CCC2)[nH]1	87.8	84.6	·	-22.6
CN1C(=O)/C(=C\c2ccc(C(=O)NCc3ccco3)cc2)SC1=S	105.0	94.9	100.6	-36.5
COc1ccc(CC(=O)OCC(=O)N2CCCC(C)C2)cc1 (stereo not given)	72.8	95.8	·	-8.9
O=C(Nc1ccccc1)OC1CCS(=O)(=O)C1 (stereo not given)	107.2	93.9	104.6	-8.9
CCOC(=O)c1cn(CC(=O)Nc2ccccc2)nn1	101.3	85.5	103.1	·
COc1ccc(/C=[N+](\C)[O-])cc1OC	90.1	90.4	·	-94.7
CS(=O)(=O)Cc1nc2ccccc2[nH]1	117.5	96.9	·	-12.2
C#CCn1c(/C=C/c2ccc(Cl)cc2)nc2ccccc21	86.8	79.3	102.4	-23.3

The list goes on:
structure	Sa growth inh	Sa growth inh second temp	GIV Gai3 FP	HCMV NEC inh
Cn1nnnc1SCC1=C(C(=O)O)N2C(=O)C(NC(=O)C(O)c3ccccc3)C2SC1 (stereo not given)	-0.5*	-0.3*	·	5.1
O=C(Cc1ccccc1)Nc1nc2nc(-c3ccccc3)cc(=O)n2[nH]1	84.6	73.8	100.1	-21.1
O=c1/c(=C/c2ccc(O)c(Cl)c2)sc2nc3ccccc3n12	85.4	61.8	345.3	-14.7
Cc1nc2ccc(S(=O)(=O)CCC(=O)Nc3ccc(C(C)C)cc3)cc2s1	113.5	87.0	103.6	·
O=C(CSc1nnc(C2CCCCC2)o1)c1ccc[nH]1	97.0	83.5	·	-22.3
Cc1cccn2c(=O)c(/C=N/NCCC#N)c(Sc3nc4ccccc4s3)nc12	115.7	61.5	·	-23.1
CSc1ccccc1C(=O)NCc1n[nH]c(=O)c2ccccc12	75.6	93.0	99.4	-29.4
COC(=O)C(N)C12CC3CC(CC(C3)C1)C2 (stereo not given)	95.0	97.1	95.1	-6.1
COC(=O)C(Cc1c[nH]c2ccccc12)NS(=O)(=O)c1ccc(Cl)cc1 (stereo not given)	70.2	71.7	99.8	·
Cc1ccc(-c2cnnc(-n3nc(C)c4c3NC(=O)CC4c3ccccc3C)n2)cc1 (stereo not given)	·	·	103.5	-21.8

The last 4 records of the section above lead into the next:
structure	Sa growth inh	Sa growth inh second temp	GIV Gai3 FP	HCMV NEC inh
CSc1ccccc1C(=O)NCc1n[nH]c(=O)c2ccccc12	75.6	93.0	99.4	-29.4
COC(=O)C(N)C12CC3CC(CC(C3)C1)C2 (stereo not given)	95.0	97.1	95.1	-6.1
COC(=O)C(Cc1c[nH]c2ccccc12)NS(=O)(=O)c1ccc(Cl)cc1 (stereo not given)	70.2	71.7	99.8	·
Cc1ccc(-c2cnnc(-n3nc(C)c4c3NC(=O)CC4c3ccccc3C)n2)cc1 (stereo not given)	·	·	103.5	-21.8
CCNC(=S)Nc1sc2c(c1C(=O)OCC)CC(C)(C)OC2	111.3	90.8	102.9	·
CCN(CC)CCCNc1cc(-c2ccccc2)nc(C)n1	92.0	84.2	100.7&98.9	-25.5&-11.6
CCc1ccc2nc(N3CCC(C(=O)NCCc4ccccc4)CC3)sc2c1	116.7	93.9	94.8	·
COC(=O)c1cccc(Cn2c(C)nc3ccccc3c2=O)c1	96.0	96.6	102.0	6.6
CCOc1ccccc1-n1nnc(C(=O)Nc2ccc(S(N)(=O)=O)cc2)c1C	·	·	102.8	11.1
COc1cccc(NC2c3ccccc3C(=O)N2Cc2ccc3c(c2)OCO3)c1 (stereo not given)	·	·	100.0	-38.0
CC(C)(C)c1cc(C(c2ccc(O)cc2)N2CCOCC2)cc(C(C)(C)C)c1O (stereo not given)	-1.3*	-0.8*	101.3	·
CC(OC(=O)c1ccccn1)C(=O)Nc1ccc(C(N)=O)cc1 (stereo not given)	86.4	90.2	·	-13.9
O=C(Cn1c(=O)n(Cc2ccc3c(c2)OCO3)c(=O)c2oc3ccccc3c21)Nc1ccccc1F	120.9	93.9	106.1&105.5	-12.2
O=C(CSc1ccccc1)NCc1nc(-c2ccccc2)no1	118.0	86.3	106.1	·

New compounds follow
structure	Sa growth inh	Sa growth inh second temp	GIV Gai3 FP	HCMV NEC inh
COC(=O)C(Cc1c[nH]c2ccccc12)NC(=O)c1cc([N+](=O)[O-])cc([N+](=O)[O-])c1 (stereo not given)	·	·	106.6	-49.3
COC(=O)Cn1cnc2sc(C)c(S(=O)(=O)N3CCC(C)CC3)c2c1=O	109.4	96.2	105.9	3.4
CS(=O)(=O)N1CCN(c2nc3ccccc3n3cccc23)CC1	·	·	98.5	-41.4
O=C(NCCCN1CCCC1=O)C1CCN(c2ncnc3c2sc2cccc(F)c23)CC1	91.6	80.8	107.3	-8.4
CC1CC(C)CN(C(=O)COC(=O)COc2ccc(Br)cc2)C1 (stereo not given)	106.1	83.6	·	-20.3
Cc1cc(=O)oc2oc3c(O)c(O)ccc3c12	70.0	31.1	107.5	-35.5
Cn1c(=O)c2c(nc(SCC(=O)N3CCCC3)n2C)n(C)c1=O	100.4	86.1	102.0	-36.6
Nc1ccc(-c2nc3ccccc3n2CCO)cc1	96.0	105.6	·	19.1
Cc1c(C(=O)NCCCn2ccnc2)oc2ccccc12	100.4	82.0	·	-49.2
CSc1ccccc1NC=C(C#N)C#N	97.1	87.4	104.5	-0.3

The list continues.
structure	Sa growth inh	Sa growth inh second temp	GIV Gai3 FP	HCMV NEC inh
CCOC(=O)c1ccccc1NS(=O)(=O)c1c(-c2ccc(C)cc2)csc1C(=O)OC	122.2	105.9	97.7	·
O=C(Cn1nnnc1-c1ccccc1F)Nc1ccc(F)c(F)c1	98.9	89.3	99.2	-38.6
Cc1cc(C)n(CC(=O)NCc2ccc3c(c2)OCO3)c(=O)c1S(=O)(=O)c1ccccc1	·	·	100.5	6.9
O=C(CSc1nc(-c2ccccc2)cc(=O)[nH]1)Nc1ccccc1F	111.1	79.0	109.5	-15.3
Cc1ccc(Cl)cc1NC(=O)CN1C=NS(=O)(=O)c2ccccc21	94.9	90.2	103.7	·
CC(=O)Oc1ccc(OC(C)=O)c2c1C1C=CC2CC1	104.5	99.4	100.9	4.3
COC(=O)C1=C(N)OC2=C(C(=O)CC(c3ccccc3)C2)C1c1ccc(Cl)cc1 (stereo not given)	·	·	107.4	-7.8
CCc1ccccc1NC(=O)CCn1c(=O)sc2ccccc21	84.6	85.5	98.2	·
O=C(COC(=O)c1cc(-c2ccccc2)nc2ccccc12)NCc1ccccc1	92.2	88.3	·	-26.8
C=CCNC(=O)c1cc2cc(OCC)ccc2n1C	·	·	104.5	-11.6

(more compounds)
structure	Sa growth inh	Sa growth inh second temp	GIV Gai3 FP	HCMV NEC inh
O=C(NCC1(c2ccccc2)CCCC1)c1ccc(Br)o1	84.8	95.7	98.4	18.7
NC(=O)COC(=O)c1ccc2ncsc2c1	99.1	90.7	·	-15.2
Cc1ccc(Cn2nc(C)c3cc(C(=O)OCC(N)=O)sc32)cc1	75.5	85.8	·	-47.4
CCOc1ccc(CCNC(=O)CCSCc2ccc(Cl)cc2)cc1OCC	108.2	97.1	104.0	·
COc1cccc(-c2nn(C)c3sc(C(=O)NCCCN4CCC(C)CC4)cc23)c1	·	·	101.6	16.2
CCN1CCSc2ccc(C(=O)Nc3ccc(OC)cc3)cc21	106.0	96.0	108.4	13.1
O=C(CN1CCN(Cc2ccccc2)CC1)N1CCCc2c1c(=O)oc1ccc(O)cc21	106.4	89.5	108.7	3.4
Cc1sc(/N=C/N(C)C)c(C(=O)c2ccc(Cl)cc2)c1C	88.2	81.3	105.8	·
O=C(Nc1ccc(Cl)cc1Cl)C1C2C3CCC(C3)C12 (stereo not given)	103.3	81.3	104.6	-22.1
Cc1ccc(C(=O)NCC(=O)N2CCN(c3ccccc3)CC2)cc1	92.3	95.0	95.3	-18.8

Later entries.
structure	Sa growth inh	Sa growth inh second temp	GIV Gai3 FP	HCMV NEC inh
C/C(=C\c1ccco1)C1Nc2cccc3cccc(c23)N1	53.1	70.2	·	-38.6
CCN(C(=O)c1cc2c(Cl)nc3ccccc3c2s1)c1cccc(Cl)c1	112.8	92.2	103.4	-26.4
O=C(CCCn1c(=O)c2cccn2c2ccccc21)Nc1ccccc1F	97.8	84.7	106.5	8.0
CCC1CCCCN1CCCNC(=O)CN1C(=O)c2cccnc2Oc2ccc(C)cc21 (stereo not given)	89.3	96.4	104.0	·
O=C(Cc1ccc(NC2=NC3CS(=O)(=O)CC3S2)cc1)NCc1ccccc1Cl (stereo not given)	·	·	102.0	-29.7
O=C(CSc1nc2ncccc2[nH]1)Nc1ccccc1F	·	·	101.9	-20.0
Cc1ccc(Cn2cc(/C=C(/C#N)C(=O)Nc3cccc(Cl)c3)c3ccccc32)cc1	103.3	90.6	106.0	-33.0
CCOC(=O)C1CCN(C(=O)Cn2c(=O)cc(C)c3c(C)nn(C)c32)CC1	108.3	91.4	99.4	·
COc1ccc(N2CCN(c3oc(-c4ccccc4C)nc3S(=O)(=O)c3ccccc3)CC2)cc1	102.2	91.6	101.5	9.8
CCSc1nnc(Cc2cc(=O)[nH]c(=O)[nH]2)n1-c1cccc(C)c1	107.4	88.9	105.2	·

Three records picked at random from those above, as already listed:
structure	Sa growth inh	Sa growth inh second temp	GIV Gai3 FP	HCMV NEC inh
CC(O)Cc1nsc(NC(=O)c2cccs2)n1 (stereo not given)	132.8	83.6	100.0	-10.5
O=C(Nc1ccccc1)OC1CCS(=O)(=O)C1 (stereo not given)	107.2	93.9	104.6	-8.9
Cc1ccc(Cl)cc1NC(=O)CN1C=NS(=O)(=O)c2ccccc21	94.9	90.2	103.7	·

Following part.
structure	Sa growth inh	Sa growth inh second temp	GIV Gai3 FP	HCMV NEC inh
COc1ccc(C2CC(=O)C3=C(C2)Nc2ccccc2NC3c2ccc(C)c([N+](=O)[O-])c2)cc1OC (stereo not given)	·	·	105.1	-20.9
CCN(CC)CCN1C(=O)C(O)=C(C(=O)/C=C/c2ccco2)C1c1ccc(OC)cc1 (stereo not given)	107.0	93.1	102.6	-17.4
CCC(C)NC(=O)[C@@H]1CCCN1S(=O)(=O)c1ccccc1C(F)(F)F (stereo not given in full)	107.8	89.5	·	-5.6
O=c1[nH][nH]c(=S)n1-c1ccccc1C(F)(F)F	122.2	91.5	103.4	-13.3
N#Cc1nccnc1SCCO	97.0	90.0	99.5	-19.7
Cc1nc(CSc2nc3ccccc3s2)cs1	95.5	88.9	99.2	-16.3
Cc1ccc(NC(=O)Nc2nnc(N3CCCC3)s2)cc1	121.2	89.7	99.9	-10.4
COc1ccc(C(=O)N2N=C(c3cccc(OC)c3)CC2(O)C(F)(F)F)cc1 (stereo not given)	·	·	97.6	-21.3
O=C(Cn1c(=O)nc(-c2ccccc2)c2ccccc21)Nc1cccc(C(F)(F)F)c1	99.0	83.0	105.2	·
